Screens: PubChem BioAssay, National Center for Advancing Translational Sciences (NCATS)
Six1-Eya2 blk = qHTS Assay for Inhibitors of the Six1/Eya2 Interaction. AlphaScreen GST-Six1/His-Eya2 binding, biochemical; active compounds read low; control for the full effect not named in the record. 360,000 tested, 0.56% active. AID 651725, 2012. activity change, % (no concentration beside the values); in the data active = activity change below about -65%; inconclusive = about -30% to -65%; inactive = above about -30%; note: % is set by controls: 0 for no effect and ±100 for the full control effect
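Six1/Eya2 binding was read as AlphaScreen signal after compounds were pinned into GST-Six1 plus His-tagged Eya2 (5X stock 250/500 nM) in pH 8.0 Tris/NaCl/TCEP buffer, beads added, then incubated 1 h, 37 C, dark.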
TRPML1 agonist = qHTS for Agonists of the Human Mucolipin Transient Receptor Potential 1 (TRPML1) | TRPML1-expressing cells, Ca2+ dye fluorescence, FDSS; host cell line not named in the record; reference of the full effect not given here | activation, % (test concentration not listed) | 410,000 tested, 0.12% active; in the data active = activation above about 50%; inconclusive = about 30% to 50%; inactive = below about 30%; note: 0% is about no effect; the text of the record puts the active cut at 80%
Target sequence (Q9GZU1 whole entry, looked up): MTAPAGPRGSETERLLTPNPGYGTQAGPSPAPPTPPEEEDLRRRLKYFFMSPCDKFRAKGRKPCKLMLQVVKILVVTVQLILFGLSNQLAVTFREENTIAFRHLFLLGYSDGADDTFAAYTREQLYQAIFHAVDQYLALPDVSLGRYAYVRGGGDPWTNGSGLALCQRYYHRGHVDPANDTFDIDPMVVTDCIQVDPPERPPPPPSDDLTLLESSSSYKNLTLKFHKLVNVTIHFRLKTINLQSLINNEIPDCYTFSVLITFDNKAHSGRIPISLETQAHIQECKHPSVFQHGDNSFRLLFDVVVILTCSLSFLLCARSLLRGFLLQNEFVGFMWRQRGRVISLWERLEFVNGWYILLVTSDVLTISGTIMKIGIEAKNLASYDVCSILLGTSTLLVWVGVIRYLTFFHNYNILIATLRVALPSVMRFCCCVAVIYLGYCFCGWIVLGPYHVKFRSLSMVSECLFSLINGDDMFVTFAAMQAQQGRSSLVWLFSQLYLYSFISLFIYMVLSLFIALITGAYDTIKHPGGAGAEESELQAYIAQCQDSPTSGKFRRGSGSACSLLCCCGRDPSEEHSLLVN
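Cells: TRPML1-DL, 1X Tet inducer, ~16 h at 37 degrees C/5% CO2. Dye: ABD Ca8 no-wash + quencher, 45-90 min RT. Read: 10 s baseline, compound add, 110 s agonist phase; 54-4 EC80 (4uM final), 110 s antagonist phase.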
CtBP-E1A blk = qHTS Assay for Inhibitors of the CtBP/E1A Interaction | activity change, % (test concentration not listed) | AID 651724, 2012 | AlphaScreen GST-E1A/His-CtBP binding, 1536-well; active compounds read low; control for the full effect not named in the record | CtBP / adenovirus E1A interaction (AlphaScreen) | 340,000 tested, 0.49% active; in the data active means activity change below about -65%; inconclusive means about -30% to -65%; inactive means above about -30%; note: % is set by controls: 0 for no effect and ±100 for the full control effect
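Homogeneous bead-based format: GST-tagged E1A captured on glutathione donor beads, His-tagged CtBP on nickel acceptor beads; compounds precede bead addition by 2 h at 37 °C.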
D2 agonist = Beta-Arrestin HTS for Positive Allosteric Modulators of the Human D2 Dopamine Receptor: Agonists | D(2) dopamine receptor (Homo sapiens), P14416 | DiscoveRx PathHunter D2 beta-arrestin, luminescence, 90 min; 100% = 57 uM dopamine signal | activation, % (no concentration beside the values) | AID 624465, 2012 | 360,000 tested, 0.084% active; in the data active = activation above about 40%; inconclusive = about 15% to 40%; inactive = below about 15%; note: compound concentration not given in the record; the text of the record calls up to 30% inactive
Target sequence (P14416 whole entry, looked up): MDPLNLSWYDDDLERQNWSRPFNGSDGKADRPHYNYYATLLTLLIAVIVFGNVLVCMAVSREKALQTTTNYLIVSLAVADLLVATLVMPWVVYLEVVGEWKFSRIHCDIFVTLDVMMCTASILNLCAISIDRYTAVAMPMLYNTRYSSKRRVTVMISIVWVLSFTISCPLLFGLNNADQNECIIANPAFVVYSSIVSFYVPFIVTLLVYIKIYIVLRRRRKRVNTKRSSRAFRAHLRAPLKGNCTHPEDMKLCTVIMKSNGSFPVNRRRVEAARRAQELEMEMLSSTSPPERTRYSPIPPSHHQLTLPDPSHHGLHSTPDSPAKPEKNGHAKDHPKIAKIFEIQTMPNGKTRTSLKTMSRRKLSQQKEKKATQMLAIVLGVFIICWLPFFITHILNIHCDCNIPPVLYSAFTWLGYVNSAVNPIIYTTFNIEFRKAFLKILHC
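Agonist mode: compounds alone added to overnight-plated D2 PathHunter cells for 90 min at 37 C, with 57 uM final dopamine (EC100) defining full response. Beta-arrestin recruitment detected by chemiluminescent reagent, read after 1 h at ambient temperature.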
PINK1 expr mod = A Quantitative High throughput Screen to Identify Chemical Modulators of PINK1 Expression; 410,000 tested, 0.2% active; PINK1 immunofluorescence, high-content cytometry, 24 h; Potency, µM (titrated, usually from 76.6 µM), without a hit: top-dose activation (PINK1 increase), most hits filed as activators; active = well fitted activation curve with a large enough effect; inconclusive = small, poorly fitted or top-dose-only effect; inactive = flat fitted curve, though single readings scatter; cell line not stated here;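 note: potency is the fitted concentration of half-maximal effect; % of control where 0% means no effect; nearly all actives have a fitted effect of over 65% in size; a mitochondrial uncoupler was the plate control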
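Stable cell line, 250 cells/well, 12 h attachment; compounds pinned at 5 concentrations, 24 h; CCCP control. Fixed with nuclear dye, primary antibodies 12 h at 10 degrees C, secondary plus cell stain; laser-scanning cytometer read.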
D2 potentiator = Beta-Arrestin HTS for Positive Allosteric Modulators of the Human D2 Dopamine Receptor: Potentiators | D(2) dopamine receptor (Homo sapiens), P14416 | DiscoveRx D2 beta-arrestin cells, luminescence, 90 min; 100% = 57 uM dopamine signal | potentiation, % (concentration not given with the values) | 360,000 tested, 0.23% active | AID 624464, 2012; active = potentiation of 50% or more; inconclusive = 30% to 50%; inactive = 30% or less;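 note: compound concentration not given in the record; tested on top of an EC20 dose of dopamine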
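D2 cells co-treated with compound plus 50 nM dopamine (EC20) for 90 min at 37 deg C to detect potentiation. Beta-arrestin recruitment was read as enzyme-fragment luminescence after 1 h at ambient temperature. Full response was set by 57 uM dopamine.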
Numbers without * were called inactive; ? = inconclusive; / = not tested or not shown; [ ] = dose if it differs, or a comment.

Every second line gives: Six1-Eya2 blk	TRPML1 agonist	CtBP-E1A blk	D2 agonist	PINK1 expr mod	D2 potentiator
Cc1cccc(/C=C/C(=O)c2ccc([N+](=O)[O-])o2)c1
 : -0.5	1.3	-0.3	6.7	7.0%	13.9
O=C(CCc1ccccc1)Nc1nnc(-c2ccccn2)o1
 : -25.5	0.3	-18.7	-0.4	5.3%	-17.1
O=C(COC(=O)C1CCN(S(=O)(=O)c2cccs2)CC1)NCc1ccccc1
 : 2.9	0.8	6.6	4.0	-1.1%	-5.6
COc1ccc(C2CC2/C(C)=N/OC(=O)c2cccs2)cc1 (stereo not drawn)
 : 13.1	-0.2	-2.1	5.6	-1.4%	-14.5
O=C(CNC(=O)c1cc(Cl)cc([N+](=O)[O-])c1)OCC(=O)N1CCCCC1
 : 1.4	2.7	4.2	1.5	0.1%	-7.4
O=C(NC1CCCC1)c1cc2c(=O)n3ccccc3nc2s1
 : -12.7	-0.6	/	0.4	0.8%	2.7
Cc1ccc(O)c(N=Nc2nccs2)c1
 : -70.6*	0.3	?	-8.4	3.1%	-23.7
COc1ccc(NC(=O)c2ccc(-c3nn(C)c(=O)c4ccccc34)cc2)cc1
 : 11.6	0.3	3.7	1.5	7.4%	2.8
CCCN(CCC)c1ncnc2c1cnn2-c1ccc(OC)cc1
 : 10.9	0.8	11.5	3.4	-1.4%[38.3 µM]	-7.2
Cc1c(Cl)c([N+](=O)[O-])nn1CCCC(=O)Nc1cc(Cl)ccc1Cl
 : 10.6	-0.2	12.9	-2.4	10.7%	-23.8
O=C(c1cnn(C(=O)c2ccco2)c1)c1cc(F)ccc1O
 : 5.1	-0.4	-3.9	5.7	-0.7%	-3.3
CCn1c(CNc2ccccc2Cl)nnc1SCC(=O)OC1CCCCC1
 : 1.8	0.6	3.3	-1.8	/	-11.2
COC(=O)/C=C/c1ccccc1CN1[C@@H](CC(=O)OC)c2ccccc2S1(=O)=O
 : -23.7	-0.8	-83.4*	-3.0	0.9%	-5.7
Cc1ccccc1NC(=O)c1ccccc1NC(=O)Cc1cccc2ccccc12
 : 12.0	0.7	/	-5.3	15.1%	-4.7
CC(C)NS(=O)(=O)c1ccc(NC(=O)Cc2ccsc2)cc1
 : -0.4	3.1	/	3.3	0.9%	-5.3
Cc1cc(CNC(=O)c2ccc3c(c2)OCO3)c2ccccc2n1
 : 2.4	0.9	7.8	-0.1	5.1%	-1.6
COc1ccc(C(=O)Nc2ccc(Nc3ccccc3)cc2)cc1[N+](=O)[O-]
 : -1.8	/	/	-1.5	1.2%	-2.9
Cc1nc(CSc2n[nH]c(=O)n2-c2cccc(F)c2)cs1
 : 1.1	1.0	-8.5	2.4	1.4%	0.2
O=C(Nc1ccc(F)cc1)c1cc(S(=O)(=O)N2CCCCC2)ccc1F
 : -3.4	0.6	/	-0.2	3.4%	-4.3
C=CCn1cc(C(=O)NCC2CCCO2)c(=O)c2cc(S(=O)(=O)N3CCCCCC3)ccc21 (stereo not drawn)
 : -2.1	-0.6	-3.9	0.2	6.6%[38.3 µM]	-3.7
CCC1CCCCN1CCCNC(=O)Cn1nc(-c2ccccc2)ccc1=O (stereo not drawn)
 : -3.1	0.3	14.3	-0.5	-0.4%[38.3 µM]	-8.0
N#Cc1c(N)c(C(=O)c2ccc(Cl)cc2)n2c1CCC2
 : -10.1	-0.4	-0.1	-2.9	19.8%	-19.6
CC(C)[C@H](NC(=O)c1ccc(Cl)c([N+](=O)[O-])c1)C(=O)NCc1ccc(Cl)cc1Cl
 : 0.8	-0.1	6.4	-3.2	4.2%	-26.2
COC(=O)c1sc2nc(SCc3ccccc3C)n(N)c(=O)c2c1C
 : 3.6	-0.6	7.9	-1.7	10.2%	-5.1
COc1ccc(CNC(=O)c2cc3cccc(OC)c3oc2=N)cc1
 : -0.5	2.1	5.8	-6.6	?	-24.3
CC(=O)Nc1ccc(S(=O)(=O)Nc2ccc(-c3ccc4nnc(C)n4n3)cc2)cc1
 : -28.9	1.3	-12.5	-2.4	-0.5%	-6.6
Cc1ccc(NC(=O)NNC(=O)c2sccc2-n2cccc2)cc1
 : -0.4	0.8	-1.9	-1.0	0.5%	-9.2
FC(F)Oc1ccc(NC(=S)NCc2nc3ccccc3[nH]2)cc1
 : 10.3	-0.1	5.9	-2.9	2.7%	-2.9
O=C(COC(=O)C12CC3CC(CC(O)(C3)C1)C2)NC12CC3CC(CC(C3)C1)C2
 : -2.1	0.9	-1.6	-5.1	0.7%	-5.1
O=S(=O)(NC1CC1)c1ccc(S(=O)(=O)N2CCN3CCCC3C2)cc1 (stereo not drawn)
 : -0.6	-0.7	-4.3	-0.4	-3.8%[38.3 µM]	-15.9

Quoted at random: two entries already listed.
Every second line gives: Six1-Eya2 blk	TRPML1 agonist	CtBP-E1A blk	D2 agonist	PINK1 expr mod	D2 potentiator
O=C(Nc1ccc(F)cc1)c1cc(S(=O)(=O)N2CCCCC2)ccc1F
 : -3.4	0.6	/	-0.2	3.4%	-4.3
CCCN(CCC)c1ncnc2c1cnn2-c1ccc(OC)cc1
 : 10.9	0.8	11.5	3.4	-1.4%[38.3 µM]	-7.2

The results go on.
Every second line gives: Six1-Eya2 blk	TRPML1 agonist	CtBP-E1A blk	D2 agonist	PINK1 expr mod	D2 potentiator
CCC(Oc1ccccc1)C(=O)O/N=C(\N)c1ccc(OC)c(OC)c1 (stereo not drawn)
 : 19.7	4.2	25.9	-4.9	2.4%	-1.4
COc1ccc(NC(=O)NCc2cccnc2)cc1OC
 : 1.5	-0.3	-0.6	-2.6	0.8%[38.3 µM]	-19.0
COc1ccc(N2CCN(c3ccc(NC(=O)/C=C\C(=O)O)cc3)CC2)cc1
 : -8.9	/	/	4.5	1.1%	7.3
CC(=O)c1ccc(OCC(=O)Nc2ccc3c(c2)OCO3)cc1
 : -3.0	-0.8	-1.9	-2.9	-1.2%	-16.5
Cc1ccc(CN2C(=NC(=O)CCC(=O)O)SC3CS(=O)(=O)CC32)cc1 (stereo not drawn)
 : 4.3	0.4	7.3	0.1	2.5%	2.1
CCc1ccc2c(c1)C1(NN=C(c3ccc(C)cc3)S1)C(=O)N2 (stereo not drawn)
 : -27.0	2.1	-19.4	-6.1	-3.3%	-1.5
O=C(/C=C/c1cccc([N+](=O)[O-])c1)Nc1ccccc1N1CCOCC1
 : -2.6	-0.5	-3.5	1.7	-0.2%	-3.7
O=C(c1ccccc1Cl)N1CCN(S(=O)(=O)N2CCCCC2)CC1
 : -19.6	-1.1	0.0	-8.9	3.9%	-12.8
COc1cnc(-c2ccccn2)nc1Sc1ccc(Cl)cc1
 : -7.0	0.7	-10.4	-4.2	1.3%[38.3 µM]	-4.5
O=C(Nc1cnn(Cc2ccc(Cl)cc2)c1)c1cnccn1
 : -3.1	0.2	0.0	-1.6	?	-3.8
Cc1ccc2c(c1)c1nc3ccccc3nc1n2C
 : 10.7	/	/	-1.0	?	6.5
C=CCn1c(C(C)NC(=O)CC)nc2ccccc21 (stereo not drawn)
 : 2.6	0.2	-1.8	0.7	11.4%[38.3 µM]	-17.3
Cc1nc2c(=O)[nH]c(=S)n(C)c2nc1C
 : -4.0	0.5	-3.4	-4.7	3.2%	-15.4
C[C@H]1CN([C@@H](C)CO)C(=O)c2cccc(NC(=O)C3CC3)c2O[C@H]1CN(C)C(=O)Nc1ccc2c(c1)OCO2
 : 22.9	0.5	0.0	0.8	-0.1%	3.1
CC(C)C[C@@H](CNCC(=O)[C@H](Cc1c[nH]c2ccccc12)NC(=O)c1[nH]cnc1C(=O)N[C@@H](C)CN)NC(=O)c1nc[nH]c1C(=O)N[C@@H](CC(=O)O)C(=O)O
 : ?	-0.3	?	-3.6	1.2%	-1.3
Cc1cccc(NS(=O)(=O)c2ccc(C(=O)NCC3(N4CCCCC4)CCCCC3)cc2)c1C
 : -3.0	0.5	8.3	-4.4	-5.6%	-19.3
Clc1ccc(-c2nnc(-c3ccccc3Cl)o2)cc1
 : 13.5	-0.3	6.9	-1.8	2.6%[38.3 µM]	-8.7
OCC1OC(c2ccccc2)OC2COC(c3ccccc3)OC12 (stereo not drawn)
 : 16.5	-0.3	7.8	-0.7	2.5%	-14.8
Cc1nnc(SCc2cc(=O)n3[nH]cnc3n2)s1
 : 4.4	-0.3	8.9	-2.3	-2.0%	-4.8
CCCCC(CC)C(=O)Nc1cc(C(=O)NCc2ccc(C)cc2)ccc1N1CCC2(CC1)CC(c1ccccc1)=NO2 (stereo not drawn)
 : -0.2	-0.8	-1.2	-1.0	-0.6%	-45.6
COc1ccc(NC(=O)c2cc3ccccc3o2)cc1S(=O)(=O)N1CCCCC1
 : -28.1	1.7	1.2	4.6	1.2%	-28.8
C[C@H]1CN([C@@H](C)CO)C(=O)CCCn2nncc2CO[C@@H]1CN(C)Cc1ccncc1
 : 11.7	1.1	-6.4	-3.4	1.8%	5.0
Cc1ccccc1-c1nc(CS(=O)(=O)CC(=O)N2CCOCC2)c(C)o1
 : 4.3	0.8	-7.2	-5.3	0.6%	-13.6
CC(=O)NCCc1nc2ccccc2n1CCOc1cccc(C)c1
 : 2.0	0.2	-9.4	-5.8	3.8%	-9.4
CC(=O)N1CCc2cc(N=NC3=C(O)CCCC3=O)ccc21
 : -4.3	-0.3	-1.0	-2.1	-0.2%	-5.2
Cc1snc(SCC(=O)c2ccc([N+](=O)[O-])cc2)c1C#N
 : -3.8	-0.3	/	?	5.2%	11.4
CCNCc1cc([N+](=O)[O-])ccc1OCC
 : 5.8	0.3	/	-6.1	0.6%	-11.6
CC(C)C[C@@H]1COc2cccc(N3CCSCC3)c2S(=O)(=O)N1
 : 4.7	-0.6	0.7	/	0.7%	/
COc1ccc(NC(=O)COC(=O)Cc2ccsc2)c(OC)c1
 : 10.2	1.4	12.8	-0.2	-1.9%	-2.5
C=CCN1C=C2C(=O)C(C)(OC(=O)c3cccs3)C(=O)C=C2C=C1CCCC(=O)OC (stereo not drawn)
 : -0.7	-0.1	-2.6	?	-1.0%	6.2
CN(C)c1ccc(C=c2c3ccccc3n3c2c2c([n+]3C)CCCC2)cc1
 : ?	1.6	-13.7	-3.7	-1.5%	-14.8
CC/C(=N/OC(=O)c1cccc(C)c1)C(=O)c1cccs1
 : 9.4	0.7	6.7	2.5	0.1%	-2.4
O=C(O)c1cccc2c1-c1ccc(Cl)cc1C2=O
 : 2.1	0.0	4.1	-1.6	-2.2%	-8.5
C=CCCC(=O)Nc1nc(C)c(-c2csc(Nc3cccc(OC)c3)n2)s1
 : -8.3	-0.4	-11.0	-0.4	2.8%	-9.5
COc1ccc(C(=O)c2ccccc2Cl)cc1OC
 : 11.4	3.1	-9.1	-4.2	0.7%	-3.6

As entered above.
Entry for C=CCCC(=O)Nc1nc(C)c(-c2csc(Nc3cccc(OC)c3)n2)s1 under Six1-Eya2 blk: -8.3
Entry for COc1ccc(C(=O)c2ccccc2Cl)cc1OC under PINK1 expr mod: 0.7%
